miR-21 reporter = raises the signal of a miR-21 reporter; HeLa miR-21 FLuc reporter, luciferase, 48 h; Potency, µM (series often up to 38.3 µM), for inactives: at the highest dose reporter change, positive = more light; 340,000 tested, under 10 active; AID 2288; active = well fitted rising curve with a large enough effect; inconclusive = small, poorly fitted or top-dose-only effect; inactive = no such curve, though single readings can be large or run the other way;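 further: % of control where 0% means no effect; miR-21 action dims this reporter so a rising signal means less miR-21 action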
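Luminescence from a firefly luciferase reporter carrying a miR-21 binding site downstream, stably expressed under a CMV promoter in HeLa cells that make miR-21 endogenously, reports miRNA modulation after 48 h compound exposure up to approximately 40uM final.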
An asterisk follows results filed as active; ? = inconclusive. Not all compounds are listed; the hit share may differ from the screen's.

SMILES	miR-21 reporter
COc1ccc(OC)c(C2CC(=O)Nc3c2c(=O)n(C)c2ncnn32)c1 (centres undefined)	-22%
CCC(=O)N1CCc2cc(S(=O)(=O)NC(Cc3ccccc3)C(=O)NCc3cccc(OC)c3)ccc21 (centres undefined)	-4%
Cc1ccccc1NC(=O)N1CCc2cc(S(=O)(=O)N3CCC(C)CC3)ccc21	-1%
Cc1csc2nc(-c3ccc(NS(=O)(=O)c4cc(F)ccc4F)cc3)cn12	-15%
Cc1nc2ccn(Cc3cccnc3)c(=O)c2cc1C(=O)NCc1ccc(Cl)cc1	18%
Cc1c(NC(=O)c2cc([N+](=O)[O-])ccc2N2CCOCC2)cccc1-c1nc2ccccc2o1	-1%
CC(=O)c1ccc(NC(=O)CC2Sc3ccccc3NC2=O)cc1 (centres undefined)	-2%
CCCC(CCC)C(=O)NC1CC(=O)N(c2ccc3c(c2)OCCO3)C1 (centres undefined)	-1%
COCCc1nn2c(=O)cc(COC(=O)c3ccco3)nc2s1	-1%
O=C(Nc1ccccc1C(F)(F)F)c1ncoc1-c1ccco1	-21%
Cc1cc(-c2ccc(C)c(S(=O)(=O)N3CCC(C)CC3)c2)on1	11%
O=C(CSc1oc(-c2ccccc2)nc1S(=O)(=O)c1ccc(Br)cc1)NC1CCCCC1	-1%
CCOc1ccc(CNC(=O)c2oc3c(c2C)-c2nn(Cc4cccc(Cl)c4)cc2CC3)cc1	-1%
CC(=O)N1CCc2c(sc3c2c(=O)n(CCc2ccccc2)c(=O)n3Cc2cccc(C)c2)C1	0%
Fc1ccccc1N1CCN(Cc2nnc(-c3ccc4c(c3)OCO4)o2)CC1	-2%
COC(=O)c1cc2c(cc1NC(=O)c1cnn(-c3ccccc3)c1-n1cccc1)OCO2	-1%
CCc1cccc(CC)c1NS(=O)(=O)c1ccc2c(c1)CCN2C(=O)C1CC1	1%
Cc1cc(S(=O)(=O)Nc2cccc(-c3ccc(N4CCOCC4)nn3)c2)c(C)cc1Cl	-8%
N#Cc1cccc(NC(=O)c2ccc3c(c2)N(Cc2cccc(Cl)c2)C(=O)c2ccccc2S3(=O)=O)c1	6%
COc1cccc(Cn2cc(C(=O)c3ccc(Cl)cc3)c(=O)c3ccccc32)c1	14%
Cc1ccc2nc(NC(=O)COc3ccc(F)cc3)sc2c1	-15%
CCc1ccccc1NC(=O)CSc1nnc(-c2ccc(OC)cc2)s1	-15%
Cc1ccc(-n2ncc3c(NCc4ccccc4)ncnc32)cc1C	-30%
CCOc1ccc(N(Cc2ccccc2)C(=O)c2nc(SC)ncc2Cl)cc1	19%
CCc1ccc(OCC(=O)Nc2ccc(Cl)c(-c3nc4cc(C)cc(C)c4o3)c2)cc1	-2%
Cc1ccc(-n2ncc3c(NCCc4ccccc4)ncnc32)cc1	-33%
COc1ccc(NC(=O)c2ccc3oc(=O)c(S(=O)(=O)c4ccc(F)cc4)cc3c2)c(OC)c1	4%
Cc1oc2c(cc(NS(=O)(=O)c3ccc(C(C)C)cc3)c3ccccc32)c1C(=O)OCc1ccccc1	-3%
COCCNC(=O)c1cnn(-c2cccc(C)c2)c1-n1cccc1	-11%
Cc1ccc(S(=O)(=O)c2cnc(SCC(=O)Nc3ccc4c(c3)OCCO4)[nH]c2=O)cc1	-7%
Cc1ccc(N2C(=O)CCSC23C(=O)N(Cc2ccccc2)c2ccccc23)cc1 (centres undefined)	-2%
Cc1ccccc1Cn1c(=O)n(Cc2ccc(Cl)cc2)c(=O)c2cccnc21	0%
CCOc1ccc(S(=O)(=O)Nc2cc3c(C(=O)OCc4ccccc4)c(C)oc3c3ccccc23)cc1	-7%
O=C(c1cnc(N2CCOCC2)c2ccccc12)N1CCN(c2ccccc2)CC1	0%
Cc1ccc(S(=O)(=O)c2cn(Cc3ccc(F)cc3)c3cc(N4CCCC4)c(F)cc3c2=O)cc1	-1%
Cc1ccc(Nc2ccc(N3CCN(C(=O)c4ccc([N+](=O)[O-])cc4)CC3)nn2)cc1	18%
O=C(Nc1ccc(Br)cc1F)c1cc(S(=O)(=O)NCc2ccc(F)cc2)ccc1F	0%
COc1cc(/C=C(/C#N)c2nc(-c3cc4ccccc4oc3=O)cs2)ccc1O	-7%
CCn1c(=N)c(C(=O)NCc2cccnc2)cc2c(=O)n3cc(C)ccc3nc21	1%
Cc1cc(NC(=O)Nc2nnc(N(C)C3CCCCC3)s2)ccc1Br	25%
CC(=O)c1sc2c(c1C)c(=O)n(-c1ccc(Cl)cc1)c(=O)n2Cc1cc(=O)n2cc(Cl)ccc2n1	3%
Cc1cc2nc(-c3ccc(NC(=O)c4cc5ccccc5o4)cc3)oc2cc1C	-63%
Cc1ccc(S(=O)(=O)N(CC(O)Cn2c3ccccc3c3ccccc32)c2cccc(C(=O)N(C)C)c2)cc1 (centres undefined)	19%
CCSc1nnc2n(-c3cccc(C)c3)c(=O)c3c4c(sc3n12)CCCC4	-14%
CN(c1ccccc1)S(=O)(=O)c1nnc(NC(=O)c2cccs2)s1	-70%
Cc1ccc(NC(=O)Cn2c(=O)c3cc(Cl)ccc3n3nncc23)cc1	-1%
CC(C)(C)NC(=O)N1CCC(C(=O)O)CC1	0%
Cc1c(C(=O)OC2CCCCC2)[nH]c2c1C(=O)CC(c1ccccc1)C2 (centres undefined)	16%
CSc1ncc(Cl)c(C(=O)N(Cc2ccc(C)cc2)C2CCS(=O)(=O)C2)n1 (centres undefined)	-11%
CC(=O)c1ccc(NC(=O)c2cc(S(=O)(=O)N3CCCCCC3)cn2C)cc1	-2%
COc1ccc(CCCc2nnc(SCC(=O)Nc3ccc(C)cc3)o2)cc1	1%
COc1cccc(CNC(=O)C2CCC(CNS(=O)(=O)c3ccc4c(c3)CCCC(=O)N4)CC2)c1 (centres undefined)	17%
Nc1c(C(=O)c2ccc(F)cc2)sc(Nc2ccccc2F)c1S(=O)(=O)c1ccc(Br)cc1	?
COc1ccc(N2CCN(c3oc(-c4ccc(COc5cccc(C)c5)o4)nc3C#N)CC2)cc1	-2%
O=C(CSCc1cc(=O)c2cc(F)ccc2[nH]1)Nc1ccccc1Cl	-2%
Cc1ccccc1Cn1c2ccccc2c2cnn(CC(=O)NCCc3ccccc3)c(=O)c21	0%
Cc1ccc(-n2ncc(C(=O)Nc3ccc4c(c3)OCO4)c2C2CCN(C(=O)OC(C)(C)C)CC2)c(C)c1	-39%
Cc1ccc(NC(=O)c2cnc(SCC(=O)N3CCCc4ccccc43)n(C)c2=O)cc1	-34%
Cc1ccc2c(c1)c1c(c(=O)n(-c3cccc(Cl)c3)c(=O)n1C)n2C	7%
Cc1ccc(-c2csc(/C(C#N)=C/c3ccccc3Cl)n2)cc1	-34%

Continuation:
SMILES	miR-21 reporter
CCOC(=O)c1ccc(NC2=CC(c3ccc(OCC)cc3)N(c3ccc(C(=O)OCC)cc3)C2=O)cc1 (centres undefined)	1%
C=Cc1ccc(Cn2c(C)c(CNCc3ccc(SC)cc3)c(C(=O)O)c2C)cc1	2%
COc1ccc(Br)cc1CNC(=O)Cn1nc(C)n2c(cc3cc(F)ccc32)c1=O	0%
CCc1ccc(NC(=O)Cn2c(=O)n(CC3CCCO3)c(=O)c3cc(OC)c(OC)cc32)cc1 (centres undefined)	-1%
CCOCCn1c(=NC(=O)c2ccc3c(c2)OCCO3)sc2cc(OCC)ccc21	-5%
CCOc1ccc(C(=O)OCc2cc(=O)n3nc(C4CC4)sc3n2)cc1	-2%
CCN(CC)c1ccc(C(=O)N2CCC(c3c[nH]c4ccccc34)(c3c[nH]c4ccccc34)CC2)cc1	8%
Cc1ccc(C)c(CSc2nc3ccncc3n2CC(=O)Nc2ccc(N(C)C)cc2)c1	3%
CCc1ccc2oc(-c3cc(NC(=O)c4cc([N+](=O)[O-])ccc4N4CCOCC4)ccc3Cl)nc2c1	-27%
CC(C)c1ccc(NC(=O)c2ccc(F)c(S(=O)(=O)N3CCCC3)c2)cc1	1%
COc1ccc(NC(=O)/C=C\C(=O)N(c2ccc(C(C)C)cc2)C(C(=O)NCc2ccco2)c2ccc(F)cc2)cc1 (centres undefined)	?
CCc1nn(C(C)C(=O)N2CCN(c3cccc(C(F)(F)F)c3)CC2)c(=O)c2cc3occc3n12 (centres undefined)	-3%
Cc1cc(C)c(S(=O)(=O)NCC(c2ccco2)N2CCN(c3ccccc3)CC2)c(C)c1 (centres undefined)	7%
COc1ccc(C)cc1NC(=O)CSc1nc(=O)n(Cc2ccco2)c2c1CCC2	-3%
COc1ccccc1Cn1c(CNS(=O)(=O)c2ccc(Cl)s2)nc2cccnc21	-2%
O=C(NCc1cccnc1)c1nn(-c2ccc(Cl)cc2)nc1CO	6%
COc1ccc(NC(=O)c2oc3ccccc3c2NC(=O)Cc2ccc(F)cc2)c(OC)c1	-1%
COc1ccc(S(=O)(=O)NCCS(=O)(=O)N2CCN(c3ccccc3F)CC2)cc1	-7%
COCCCNC(=O)Cn1c(=O)nc(-c2ccccc2)c2ccccc21	1%
COc1ccc(N2CCN(C(=O)c3c4c(nc5ccccc35)C(=O)N(C3CCCCC3)C4)CC2)cc1	-2%
Cc1ccccc1C(c1c(C)n(C)n(-c2ccccc2)c1=O)c1c(C)n(C)n(-c2ccccc2)c1=O	1%
CCC(C)NC(=O)c1ccc2c(=O)n3c(nc2c1)CCCCC3 (centres undefined)	-47%
Cc1cc(C)c(Cn2c3ccccc3c3cnn(CC(=O)NCCCc4ccccc4)c(=O)c32)c(C)c1	-1%
Cc1ccc(Nc2c(-c3ccsc3)nc3c(C)cccn23)cc1	17%
Cc1cccc(NC(=O)CSc2nnc(-c3cccs3)o2)c1	-52%
COc1ccccc1OCC(=O)Nc1c(C(=O)c2ccc(C)cc2)oc2ccccc12	3%
CC1=C(c2ccc(C)cc2)S(=O)(=O)N(Cc2ccc(C(=O)NCc3ccccc3)cc2)C1=O	4%
CCOC(=O)c1c(NC(=O)c2ccc(OC)c(OC)c2)sc2c1CCCCC2	0%
COc1ccc(N2CCN(S(=O)(=O)CCNC(=O)C(c3ccccc3)c3ccccc3)CC2)cc1	1%
COc1ccc(C(=O)Nc2nnc(SCc3cc(=O)c4cc(C)ccc4[nH]3)s2)cc1OC	-3%
COc1ccccc1CCNC(=O)C1CCN(c2nnc(-n3cccc3CNc3ccc(C)cc3)s2)CC1	22%
COc1ccc(-c2cc(C(F)(F)F)nc(SCCC(=O)Nc3c(C)cccc3C)n2)cc1	-2%
Cn1ncc2c(NCc3ccc(F)cc3)ncnc21	-1%
COc1ccc(S(=O)(=O)NCCSc2nnnn2-c2ccccc2)cc1OC	-6%
CCOC(=O)C1CCCN(c2nc3c(S(=O)(=O)c4ccc(CC)cc4)nnn3c3ccc(Cl)cc23)C1 (centres undefined)	-9%
CCOC(=O)c1ccc(N2CCN(c3cc(Cl)ccc3C)CC2)c(NC(=O)Nc2cccc(OC)c2)c1	8%
CCOc1ccccc1CNC(=O)c1cnc2sc(N3CCOCC3)nn2c1=O	-5%
COc1ccc(-n2nc3ccc(NC(=O)COc4ccc(C)c(C)c4)cc3n2)cc1	-1%
COc1cc(Nc2nc(SCC(=O)c3ccc(Cl)c(Cl)c3)nc3ccccc23)cc(OC)c1	?
COc1cc(-c2nc(Cn3nnc(C(=O)Nc4ccccc4)c3C)c(C)o2)cc(OC)c1OC	17%
Cc1ccc(N2CC(C(=O)Nc3ccc(Br)cc3)CC2=O)cc1 (centres undefined)	14%
COc1ccc(CCNS(=O)(=O)c2cc(-c3cc(C)no3)ccc2C)cc1OC	-4%
COc1ccc(Cn2c(CO)cnc2SCc2cccc(C)c2)cc1	-26%
CCN(CCCNC(=O)CSc1cc(=O)n(C)c2cc(Cl)ccc12)c1cccc(C)c1	-2%
COc1cc(NC(=O)C2CCN(S(=O)(=O)c3ccc4c(c3)oc(=O)n4C)CC2)cc(OC)c1	-2%
CCOc1ccc(/C=C(\C#N)c2nc(-c3cc4ccccc4oc3=O)cs2)c(OCC)c1	1%
CCc1ccccc1NC(=O)CC1NCCNC1=O (centres undefined)	0%
COc1cccc(NC(=O)CN2C=NS(=O)(=O)c3ccccc32)c1	6%
COc1ccc(N(Cc2cc3ccccc3[nH]c2=O)C(=O)c2cccc(Cl)c2)cc1	10%
CCn1cc2nc(SCc3ccc(F)cc3)n(CCc3ccccc3)c(=O)c2n1	20%
CCOC(=O)c1c(C)[nH]c(CCC(=O)NCCCN2CCN(c3cc(Cl)ccc3C)CC2)c1C	?
COc1ccc2oc(=O)cc(CN3CCN(c4ccc(F)cc4)CC3)c2c1	18%
CCOC(=O)c1c(-c2ccccc2)oc2ccc(N(C(C)=O)S(=O)(=O)c3ccccc3)cc12	4%
Cc1ccc(Cl)cc1-n1ncc2c(NCCC3=CCCCC3)ncnc21	20%

Source: PubChem BioAssay (National Center for Advancing Translational Sciences (NCATS))
